Sfp PPTase inh = Sfp phosphopantetheinyl transferase inhibition. 310,000 tested, 3.5% active. Potency, µM, for the others: max response, negative = inhibition, usual class: inhibitors. AID 1490. Biochemical Sfp PPTase activity, qHTS; active = well fitted inhibition curve with a large enough effect; inconclusive = small, poorly fitted or top-dose-only effect, or another doubt; inactive = no such curve, though single readings can be large or run the other way;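 also: the enzyme is Sfp with the accession as filed and its product quenches rhodamine fluorescence; potency is read from the fitted curve at half-maximal effect; 0% = enzyme reaction without inhibitor and -100% = no enzyme wells; top concentration of the series not given in the record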
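Step 1, compound plus 15 nM Sfp-PPTase, 15 min, room temperature. Step 2, add rhodamine-CoA (5 uM) and BHQ-2-YbbR (12.5 uM). Step 3, read 525/598 nm fluorescence at 0 and 30 min.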
Menin MLL FP FL = displaces fluorescein MLL peptide from human menin. 290,000 tested, under 10 active. FP activity change, % at 61.4 µM. Fluorescence polarization, fluorescein-MLL peptide displacement from menin; inconclusive = falling polarisation curve, or a change in total fluorescence; inactive = total fluorescence flat and polarisation flat or rising; no compound was filed as active; the % refers to the polarisation; negative = inhibition;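 also: % of control where 0% means no effect; inhibitors lower the polarisation; unlabelled MLL peptide was the positive control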
TRPML1 ag = human mucolipin-1 channel agonism; TRPML1-expressing cells, Ca2+ dye fluorescence, FDSS; host cell line not named in the record; reference of the full effect not given here; 410,000 tested, 0.12% active; activation, % (concentration not given with the values); in the data active = activation above about 50%; inconclusive = about 30% to 50%; inactive = below about 30%; also: 0% is about no effect; the text of the record puts the active cut at 80%
Target sequence (Q9GZU1 whole entry, looked up): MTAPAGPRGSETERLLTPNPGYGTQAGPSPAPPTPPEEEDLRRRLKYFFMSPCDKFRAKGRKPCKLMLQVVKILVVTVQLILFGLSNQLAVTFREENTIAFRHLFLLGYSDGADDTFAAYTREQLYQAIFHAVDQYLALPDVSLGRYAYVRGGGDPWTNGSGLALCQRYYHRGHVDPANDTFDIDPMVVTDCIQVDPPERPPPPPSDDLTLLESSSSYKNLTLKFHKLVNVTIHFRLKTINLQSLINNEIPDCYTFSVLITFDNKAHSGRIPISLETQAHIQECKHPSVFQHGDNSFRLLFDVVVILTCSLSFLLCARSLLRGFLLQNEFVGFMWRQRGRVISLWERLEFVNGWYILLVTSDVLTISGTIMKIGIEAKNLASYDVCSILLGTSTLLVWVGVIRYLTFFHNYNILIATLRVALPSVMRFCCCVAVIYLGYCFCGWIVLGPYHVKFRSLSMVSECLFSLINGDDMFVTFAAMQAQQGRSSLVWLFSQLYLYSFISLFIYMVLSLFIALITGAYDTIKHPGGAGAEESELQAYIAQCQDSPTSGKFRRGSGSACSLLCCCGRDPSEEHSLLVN
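TRPML1-DL cells, Tet-induced overnight (~16 h, 37 degrees C), loaded 45-90 min at room temperature with Ca8 no-wash calcium dye plus quencher. FDSS fluorescence: 10 s baseline, compound pin-transfer, 110 s agonist read, then EC80 54-4 (4uM final) and 110 s antagonist read.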
ClpP mod = qHTS Assay for Activators of ClpP. ATP-dependent Clp protease proteolytic subunit (Bacillus subtilis (strain 168)), P80244. purified B. subtilis ClpP, FRET peptide cleavage, 20 min. Potency, µM (highest dose often 57.5 µM), for inactives: at the highest dose activity change, negative = active. 340,000 tested, 1.9% active. AID 651965, 2013; active = well fitted falling curve with a large enough effect; inconclusive = small, poorly fitted or top-dose-only effect; inactive = no such curve, though single readings can be large or run the other way; also: potency is read from the fitted curve at half-maximal effect; the source files actives as falling curves though it sought activators and does not explain the sign; nearly all actives have a fitted effect of over 65% in size; many hits overshoot -100%
Target sequence (P80244 whole entry, looked up): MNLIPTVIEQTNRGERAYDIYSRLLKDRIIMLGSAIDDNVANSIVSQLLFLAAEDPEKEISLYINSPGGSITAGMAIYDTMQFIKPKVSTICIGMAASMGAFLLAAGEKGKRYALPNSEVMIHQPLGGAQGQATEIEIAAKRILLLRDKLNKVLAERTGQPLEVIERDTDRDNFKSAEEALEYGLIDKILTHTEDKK
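Buffer: 100 mM Tris/HCl pH8, 100 mM KCl, 0.05% low protease BSA, 2.5% glycerol, 0.01% Tween-20. ClpP 10 microg/mL final; 20 min RT; delta FRET normalized to ADEP and DMSO controls.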
PINK1 expr mod = PINK1 expression modulation. Potency, µM (highest dose often 76.6 µM), for the others: top-dose activation (PINK1 increase), usual class: activators. 410,000 tested, 0.2% active. AID 624263. PINK1 immunofluorescence, high-content cytometry, 24 h; active = well fitted activation curve with a large enough effect; inconclusive = small, poorly fitted or top-dose-only effect; inactive = flat fitted curve, though single readings scatter; cell line not stated here;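 also: potency is read from the fitted curve at half-maximal effect; % of control where 0% means no effect; nearly all actives have a fitted effect of over 65% in size; a mitochondrial uncoupler was the plate control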
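PINK1 protein level read as immunofluorescence by microplate cytometer in a fixed, stained stable cell line after 24 h exposure to five compound concentrations, with CCCP as control.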
TRPV1 PAM = human TRPV1 potentiation; potentiation, % at 8.33 µM; Q8NER1; 320,000 tested, 0.02% active; TRPV1-expressing cells, Fluo-8 calcium influx, capsaicin EC20 potentiation; host cell line not named in the record; control for the full effect not named in the record; active means potentiation above 80%; inconclusive means 30% to 80%; inactive means below 30%; also: 0% is about no effect
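TRPV1-expressing cells were cultured overnight at 35.5C and loaded with Fluo-8 calcium dye for 40 to 90 min at room temperature. After a 10 s baseline, compound was added and calcium influx was read kinetically for 3 min (ex 480/em 520 nm).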
TRPML1 blocker = blocks the human TRPML1 channel. AID 624415. TRPML1-inducible cells, Ca2+ dye fluorescence, FDSS; stronger effect = lower value; inhibition of EC80 agonist-evoked calcium signal. activity change, negative = inhibition, % (concentration not given with the values). 390,000 tested, 0.02% active. Q9GZU1; in the data active means activity change below about -50%; inconclusive means about -30% to -50%; inactive means above about -30%;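 also: stimulus is agonist 54-4 at its EC80 concentration; % is scaled to controls: 0 for no effect and ±100 for the full control effect; compound concentration not given in the record; the text of the record puts the active cut at -80%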
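Calcium fluorescence in TRPML1-DL cells induced overnight with Tet: a 110 s read after compound pin addition, then a 110 s antagonist read after challenge with 54-4 at 4 uM final (EC80).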
Starred values were filed as active, the others as inactive; ? = inconclusive; . = not tested or not shown; [ ] = dose if it differs, or a comment.

SMILES	Sfp PPTase inh	Menin MLL FP FL	TRPML1 ag	ClpP mod	PINK1 expr mod	TRPV1 PAM	TRPML1 blocker
CC(=O)OC[C@]1(OC(C)=O)C[C@@]23CC[C@H]4[C@@](C)(CCC[C@@]4(C)C(=O)O)[C@@H]2CC[C@@H]1C3	2.4%	2.9	2.0	1.1%	-1.6%	-13.9	-5.2
CC(C)C(=O)NC(=S)Nc1ccccc1C(F)(F)F	22.6%	1.6	-0.3	-0.1%	-0.8%	-2.7	-9.4
COc1cc(C(=O)NC2CCCCC2)ccc1OCc1ccc(Cl)cc1Cl	12.5%	4.8	1.6	.	5.2%	8.2	-15.1
CCCOc1ccc(/C=C/C(=O)Nc2ccc([N+](=O)[O-])cc2C)cc1	4.6%	0.7	-0.9	-0.8%	-1.7%	19.3	2.7
COc1cc(OC)cc(C(=O)Nc2cccc3c2CCCC3)c1	-4.0%	-5.4	1.1	.	4.7%	-12.1	10.7
CCCCOc1ccc(C(=O)N2CCCC2C(=O)O)cc1 (configuration not stated)	9.9%	6.5	-0.2	2.9%	0.6%	5.1	10.0
CCn1ccnc1CNC(=O)c1ccc2oc(C(C)C)nc2c1	6.8%	.	1.2	-3.1%	0.4%	-1.9	9.5
O=C(COC(=O)CCN1C(=O)C2CC=CCC2C1=O)NCCc1ccc(F)cc1 (configuration not stated)	.	.	-0.5	-0.3%	0.7%	-3.6	-1.0
COCc1cc(=O)n2[nH]c(-c3ccco3)cc2n1	-6.8%	-1.5	1.0	.	-1.1%	5.2	-1.0
Cc1oc(-c2ccc(C(=O)Nc3cccc(C(F)(F)F)c3)cc2)nc1CSc1ccccc1	.	.	2.0	4.4%	3.7%	.	-4.1
COc1ccc(OC)c(NC(=O)NCc2ccc(F)cc2)c1	?	-2.3	1.2	-1.8%	2.5%[38.3 µM]	-7.3	20.2
Cc1ccc(CNC(=O)CCc2c(C)[nH]c(=O)c(C#N)c2C)cc1	15.6%	-1.4	-0.3	.	4.3%	-1.7	3.1
COc1cc2c(C(=O)N3CCN(c4ccc(F)cc4)CC3)cn(CC(C)C)c(=O)c2cc1OC	.	.	2.8	-5.9%	2.5%	.	7.3
Cc1nc2ccn(Cc3ccco3)c(=O)c2cc1C(=O)NCc1ccccc1	.	.	-0.5	4.4%	1.1%	.	-11.3
Cc1ccc2c(c1)C1(SCCS1)C(=O)N2	4.6%	-1.7	2.5	-0.7%	-0.5%[38.3 µM]	10.0	17.9
O=C(COC(=O)c1cc(-c2cccs2)nc2ccccc12)NCc1ccco1	22.4µM*	5.1	2.0	?	3.8%	-3.8	6.3
O=C(COC(=O)c1ccco1)Nc1ccc(Br)cc1	11.9%	-0.3	1.7	-0.9%	-7.3%[38.3 µM]	3.4	-9.1
O=c1oc(-c2ccccc2)nc2c1cnn2-c1ccccc1	6.2%	1.0	3.0	32.4%	?	2.0	24.1
COc1ccc(N2CCN(S(=O)(=O)c3c(C)[nH]c(C)c3C(=O)N3CCCC3)CC2)cc1	11.2%	.	-0.8	-2.1%	-0.4%	0.5	-14.3
Cc1ccc(NC(=O)CS(=O)CC(=O)N(C(C)C(=O)NC2CCCCC2)C(C)(C)C)cc1 (configuration not stated)	-3.1%	0.7	0.2	.	-1.4%	-8.3	-14.4
Cc1ccc(NC(=O)Cn2ccn(Cc3ccc(Cl)cc3)c(=O)c2=O)cc1C	.	.	0.3	5.0%	6.3%	.	-2.1
O=C(Nc1nccs1)c1cn(-c2ccccc2)nc1-c1ccncc1	11.1%	-2.6	-0.2	.	2.9%	8.5	-3.7
Cn1c(N)c(C(=O)COC(=O)c2ccccc2C(F)(F)F)c(=O)n(C)c1=O	.	.	-0.5	-17.1%	-0.4%	.	-9.1
Cc1cc(C)n2c(SCC(=O)Nc3c(C)n(C)n(-c4ccccc4)c3=O)nnc2n1	2.0%	1.7	0.0	-5.6%	-0.9%	-1.9	-3.3
CCCCOC(=S)NC(=O)c1sc2ccccc2c1Cl	-98.0%	3.2	2.3	5.1%	-1.1%	-3.0	-4.0
(list continues)
SMILES	Sfp PPTase inh	Menin MLL FP FL	TRPML1 ag	ClpP mod	PINK1 expr mod	TRPV1 PAM	TRPML1 blocker
O=S(=O)(c1cnc[nH]1)N1CCc2ccccc21	4.2%	9.1	-0.4	0.4%	1.6%	8.5	1.4
CN(CC(=O)Nc1ccc(F)cc1)C(=O)COC(=O)CN1C(=O)NC2(CCCC2)C1=O	-6.2%	.	-0.1	-4.2%	-2.4%	?	7.5
CCOCCOC(=O)C1=C(C)N(C)C(=O)NC1c1ccccc1Cl (configuration not stated)	6.1%	1.3	0.4	-4.4%	0.4%	0.6	18.4
COc1ccc(S(=O)(=O)N(CCc2ccccc2)CC(=O)Nc2cc(Cl)ccc2C)cc1	.	.	1.8	-7.6%	2.0%	.	79.8
CC1CCCC(N2C(=O)NC(NC(=O)c3ccco3)(C(F)(F)F)C2=O)C1C (configuration not stated)	19.0%	4.4	0.9	-1.5%	2.0%	0.6	-10.6
Cc1sc2ncnc(N3CCC(C(=O)NCC(=O)Nc4ccc(F)c(F)c4)CC3)c2c1C	17.7%	-0.3	2.0	-1.0%	-0.7%	4.1	13.4
CCCCn1c(N)c(N(CCC(C)C)C(=O)C2=COCCO2)c(=O)[nH]c1=O	0.3%	.	0.8	-3.7%	1.9%	9.8	-10.0
COc1ccc(-c2noc(C3CCCN(S(=O)(=O)c4cccc(Cl)c4)C3)n2)cc1OC (configuration not stated)	-0.8%	0.1	1.7	-11.6%	-1.1%[38.3 µM]	4.1	12.9
Cc1cc(C)nc(NS(=O)(=O)c2ccc(NC(=O)CN3C(=O)C4CC=CCC4C3=O)cc2)n1 (configuration not stated)	9.6%	-3.4	0.2	.	1.0%	1.8	16.0
Cc1cccnc1NC(=O)NC(=O)c1ccc(C(C)(C)C)s1	11.4%	-0.3	0.4	-19.6%	8.9%	0.4	20.4
COc1ccc(N(C)C(=O)Cc2c(C(=O)O)[nH]c3ccccc23)cc1	5.7%	3.1	0.7	.	-1.8%	-2.0	8.1
COC(=O)C1=C(C)N(c2cccc(Cl)c2)C(=O)C1	-5.3%	3.2	0.1	-1.5%	-2.0%	3.3	3.6
CCc1c(C)sc(NC(=O)c2cc(CC(C)C)on2)c1C#N	-6.6%	0.4	0.5	1.2%	-0.1%	-20.4	50.0
CCOc1ccccc1CSc1nc2ccccc2[nH]1	0.2%	5.4	3.0	-0.2%	?	-9.5	1.2
Cc1ccc(S(=O)(=O)N(CC(=O)NCc2ccccn2)c2ccc(Cl)cc2)cc1	12.9%	-13.0	-0.2	-0.6%	1.7%	-13.9	8.1
CC1(c2cccc(Br)c2)NC(=O)N(CC(=O)NCCC2=CCCCC2)C1=O (configuration not stated)	.	.	0.5	2.5%	2.9%	.	37.7
CCOCCCNC(=O)c1cnc2sc(N3CCCCC3)nn2c1=O	.	.	-0.4	3.9%	2.9%	.	-13.8
CCOc1ncccc1C(=O)Nc1cccc(S(=O)(=O)N2CCOCC2)c1	.	.	0.4	2.6%	2.3%	.	11.0
CC(=O)Nc1ccc(NC(=O)C(C)OC(=O)c2ccc(N(C)C)cc2)cc1 (configuration not stated)	4.5%	-5.2	0.3	.	8.6%	16.0	-11.3
CCOC(=O)c1cc(C#N)c(N2CCCC2)nc1-c1ccccc1	-16.2%	4.9	2.3	28.2µM*	-3.6%	11.8	11.1
COc1ccc(-n2c(=O)c3ccccc3n(CC(=O)NCCc3ccc(OC)c(OC)c3)c2=O)cc1	.	.	-1.1	-0.1%	0.0%	.	1.4
COCCCNC(=O)c1csc([C@@H]2C[C@H](O)[C@@H](CO)O2)n1	.	.	-0.2	-1.1%	0.2%	.	.
N#C/C(=N/Nc1ccc(S(=O)(=O)N2CCOCC2)cc1)C(N)=O	4.0%	-2.0	0.2	.	1.0%	-10.0	-2.8
O=c1cc(-c2ccc(Cl)cc2)nc(N2CCN(c3ccccc3)CC2)[nH]1	6.8%	-0.8	-0.1	0.6%	2.2%	-5.5	-10.5
CCOC(=O)C1CCCN(Cc2ccc(OCC)cc2)C1 (configuration not stated)	-25.7%	2.5	0.2	-0.5%	.	-4.6	12.5
The listing continues.
SMILES	Sfp PPTase inh	Menin MLL FP FL	TRPML1 ag	ClpP mod	PINK1 expr mod	TRPV1 PAM	TRPML1 blocker
CCn1c(N)nc2ccccc21	10.5%	-2.0	0.2	-1.3%	3.5%	-4.8	-2.7
CN1CCN(CCNC(=O)Nc2ccc(Cl)cc2)CC1	13.5%	2.6	-1.0	1.1%	1.7%	-2.9	-4.0
COc1ccc(OC)c(Nc2nc(N)nc(-c3cc4ccccc4o3)n2)c1	6.6%	13.5	1.0	-20.4%	6.3%	1.2	7.4
Cc1ccccc1NC(=O)CNc1ccccc1C(=O)NCc1ccco1	-4.1%	3.8	0.6	?	0.3%	-5.5	0.9
COc1cccc(NC(=O)Cn2c(=O)c3c(ncn3Cc3ccccc3)n(Cc3ccccc3)c2=O)c1	21.4%	1.1	1.0	-5.5%	1.9%	5.6	-9.4
C/C(=N\NC(=O)Cc1ccc(Cl)c(Cl)c1)c1cccnc1	-4.5%	3.2	3.6	0.1%	0.0%	-7.1	8.9
CC1C=CCC2C(=O)N(c3ccc(OC(=O)c4cccs4)cc3)C(=O)C12 (configuration not stated)	3.9%	-1.4	4.2	-1.1%	-0.4%	-3.2	34.2
Cc1nn(CSc2c(F)c(F)c(F)c(F)c2F)c(C)c1[N+](=O)[O-]	.	.	0.8	2.6%	-0.2%	-10.6	-3.0
O=C(NCC(c1ccc2c(c1)OCO2)N1CCOCC1)c1c(F)cccc1F (configuration not stated)	.	.	0.7	-3.5%	1.0%	.	31.0
Cc1ccc2c(C)nc(Nc3nc(CSc4nc5ccccc5s4)cc(=O)[nH]3)nc2c1	.	.	0.4	.	?	.	1.6
COc1cccc(OCc2cc(C3Nc4ccccc4C(=O)N3Cc3ccco3)ccc2OC)c1 (configuration not stated)	14.1µM*	11.5	-0.9	?	2.0%	-2.2	64.3
CCC1CC=CC2C1C(=O)N(Cc1ccccc1)C2c1cc(C)ccc1F (configuration not stated)	-8.9%	-1.0	1.7	.	.	.	45.8
CC(=O)N1N=C(c2ccco2)CC1c1cc2ccc(C)cc2nc1Cl (configuration not stated)	17.9%	2.8	0.2	.	8.6%	-12.5	-17.9
O=[N+]([O-])c1ccc(S(=O)(=O)NN=C2CCCCC2)cc1	.	.	-1.2	.	1.8%	.	1.5
O=C(c1ccccc1F)N1CCN(S(=O)(=O)c2ccc(S(=O)(=O)N3CCCCCC3)cc2)CC1	24.5%	1.9	0.5	.	9.4%	1.2	-19.6
